RE007 growth inh: less growth of the S. pombe RE007 Vpr strain. S. pombe RE007 Vpr strain, BacTiter-Glo ATP luminescence, 24 h; control for the full effect not named in the record. Potency, µM (doses to about 92.2 µM), inactives show at the top dose activity change, negative = less growth. actives 0.21% (n = 360,000). AID 651644; active = well fitted falling curve with a large enough effect; inconclusive = small, poorly fitted or top-dose-only effect; inactive = no such curve, though single readings can be large or run the other way;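 also: % is scaled to controls: 0 for no effect and ±100 for the full control effect; nearly all actives have a fitted effect of over 50% in size; the assay follows cell death caused by Vpr and the record does not say whether a fall means rescue or toxicity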
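Fission yeast strain RE007, carrying one chromosomally integrated HIV-1 vpr copy, was seeded at OD 0.01 in PMG+AL medium with 23 nL pinned compound. After 24 h at 30 °C and 99% humidity, viability was read by BacTiter-Glo luminescence.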
MARV entry inh: inhibitors of Marburg virus binding or cell entry. AID 540276. Potency, µM (highest dose often 37.8 µM), inactives show at the highest dose activity change, negative = inhibition, most hits filed as inhibitors. actives 1.8% (n = 300,000). Marburg virus pseudotyped entry inhibition, cell reporter; control for the full effect not named in the record; about a third of the inactives were read at about 46 µM; active = well fitted inhibition curve with a large enough effect; inconclusive = small, poorly fitted or top-dose-only effect, or effect the other way; inactive = flat fitted curve, though single readings scatter; tested in HEK293 cells; about a fifth of its hits are not listed in these tables; also: % is scaled to controls: 0 for no effect and ±100 for the full control effect; luciferase read-out
SARS PLP yeast: blocks SARS-CoV papain-like protease in a yeast assay; S. cerevisiae expressing SARS-CoV PLpro, growth rescue; control for the full effect not named in the record; AID 485353; Potency, µM (series often up to 32.9 µM), for the others: at the highest dose activity, positive = growth rescue; actives 0.19% (n = 330,000); active means well fitted rising curve with a large enough effect; inconclusive means small, poorly fitted or top-dose-only effect; inactive means no such curve, though single readings can be large or run the other way; also: 0% is about no effect; nearly all actives have a fitted effect of over 55% in size; growth read by luminescence after 48 h
Cruzain inh noDet: cruzain (T. cruzi) inhibition without detergent; Potency, µM, for the others: max response, negative = inhibition, most hits filed as inhibitors; purified cruzain, Z-FR-AMC fluorescence, no detergent; actives 2.3% (n = 200,000); P25779;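 also: plate controls were enzyme without inhibitor for no effect and buffer without enzyme for full effect; nearly all actives have a fitted effect of over 40% in size; top concentration of the series not given in the record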
Target sequence (P25779 123-467 limits assumed): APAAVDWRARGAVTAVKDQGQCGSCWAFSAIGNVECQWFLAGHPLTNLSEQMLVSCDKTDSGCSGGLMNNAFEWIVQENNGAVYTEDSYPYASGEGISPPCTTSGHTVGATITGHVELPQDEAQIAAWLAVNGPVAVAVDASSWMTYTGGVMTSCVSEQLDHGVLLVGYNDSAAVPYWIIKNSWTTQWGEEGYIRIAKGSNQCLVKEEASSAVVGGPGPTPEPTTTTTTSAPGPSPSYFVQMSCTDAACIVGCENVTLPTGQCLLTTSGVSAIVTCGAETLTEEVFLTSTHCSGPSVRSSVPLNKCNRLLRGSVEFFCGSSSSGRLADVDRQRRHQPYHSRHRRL
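Purified cruzain at 1.5 nM, pre-incubated 15 min with compound at room temperature in 100 mM sodium acetate pH 5.5, 5 mM DTT, 0.00005% Triton X-100. Reaction started with 2 uM Z-FR-AMC; AMC fluorescence increase over 60 s gives rate.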
Lassa entry inh: Lassa virus entry inhibition. Lassa virus pseudotype entry inhibition, cell reporter; control for the full effect not named in the record. Potency, µM (top dose mostly 37.9 µM), without a hit: at the top dose activity change, negative = inhibition, actives largely listed as inhibitors. actives 1.2% (n = 300,000). AID 540256; active means well fitted inhibition curve with a large enough effect; inconclusive means small, poorly fitted or top-dose-only effect, or effect the other way; inactive means flat fitted curve, though single readings scatter; tested in HEK293 cells; also: % is scaled to controls: 0 for no effect and ±100 for the full control effect; nearly all actives have a fitted effect of over 50% in size; luciferase read-out
Cruzain Triton: cruzain (T. cruzi) inhibition with detergent | P25779 | purified cruzain, Z-FR-AMC fluorescence, 0.01% Triton | Potency, µM, inactives show max response, negative = inhibition, usual class: inhibitors | actives 0.43% (n = 200,000) | AID 1478;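 also: plate controls were neutral wells for no effect and buffer without enzyme for full effect; nearly all actives have a fitted effect of over 40% in size; top concentration of the series not given in the record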
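Sodium acetate buffer (100 mM, pH 5.5) containing 5 mM DTT and 0.01% Triton X-100 hosted 1.5 nM cruzain and test compound for 15 min at room temperature. Cleavage of 2 uM Z-FR-AMC was then tracked by fluorescence.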
2A StopGo: FMDV 2A StopGo reporter, luciferase signal. human cells with a luciferase reporter of 2A StopGo recoding; control for the full effect not named in the record. Potency, µM (top dose mostly 57.9 µM), for inactives: top-dose signal change, negative = less light. actives 1.2% (n = 410,000); active = well fitted falling curve with a large enough effect; inconclusive = small, poorly fitted or top-dose-only effect; inactive = no such curve, though single readings can be large or run the other way; tested in HEK293T cells; also: % is scaled to controls: 0 for no effect and ±100 for the full control effect; nearly all actives have a fitted effect of over 45% in size; luciferase light after 4 h
NS1 inh: blocks influenza NS1 protein function | S. cerevisiae slowed by influenza A NS1, growth recovery by OD600 | Potency, µM (series often up to 46.1 µM), for inactives: at the top dose activity, positive = more growth | actives 0.4% (n = 270,000) | AID 2326; active means well fitted rising curve with a large enough effect; inconclusive means small, poorly fitted or top-dose-only effect; inactive means no such curve, though single readings can be large or run the other way; also: nearly all actives have a fitted effect of over 50% in size
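Recovery from NS1-induced slow growth read by OD600 in budding yeast switched to galactose assay medium (pH 6.0, -URA) at 1:100 dilution. Compound 23 nl per well; the matching strain lacking NS1 serves as control.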
Starred values were filed as active, the others as inactive; ? = inconclusive; / = not tested or not shown; [ ] = remark or other dose. Unless noted, calls follow the shape of the dose curve; as a rule, active = well fitted curve in the direction sought with a large enough effect; inconclusive = small, poorly fitted or top-dose-only effect, or another doubt; inactive = no such curve, though single readings can be large; an effect the other way counts as inactive or inconclusive. Potency is read from the fitted curve at half-maximal effect.

SMILES | RE007 growth inh | MARV entry inh | SARS PLP yeast | Cruzain inh noDet | Lassa entry inh | Cruzain Triton | 2A StopGo | NS1 inh
CN(C)S(=O)(=O)c1cccc(NC(=O)CN2C(=O)C3C4C=CC(C4)C3C2=O)c1 (stereo unspecified) | 1% | -1% | -27% | -1% | 16% | -1.9% | 0% | 6%
O=C(O)COc1ccccc1Cc1ccccc1 | 6% | 20% | -5% | -9% | -1% | 0.3% | -3% | 5%
COc1ccc(C(=O)Nc2ccc3ccccc3n2)c(OC)c1OC | -9% | / | -7% | / | / | / | -66% | 9%
CC(CNC(=O)CCCn1c(=O)c2cccn2c2ccc(F)cc21)c1ccccc1 (stereo unspecified) | / | / | / | 16µM* | -16%[46.1 µM] | -3.3% | 8% | /
Cc1cccnc1NC(=O)c1ccc2c(c1)NC(=O)C(C)S2 (stereo unspecified) | -2% | 9% | -3% | / | ? | / | 0% | /
O=C(CSc1nc(O)c(C2CCCCC2)c(=O)[nH]1)Nc1ccc(F)cc1 | 7% | 6%[46.1 µM] | 6% | / | 3% | / | -18% | 27%
CCC(C)n1cnc2c(=O)oc3ccccc3c21 (stereo unspecified) | -10% | 6% | 8% | -21% | 1% | 5.1% | / | 2%
CCNC(=O)COC(=O)c1cc(S(=O)(=O)N2CCCc3ccccc32)ccc1Cl | 6% | -21%[46.1 µM] | 0% | / | -2% | / | -17% | -6%
CCN(C(=O)C1CSC2(C)CCC(=O)N12)c1nc2c(C)cccc2s1 (stereo unspecified) | -1% | -5% | 1% | / | 9% | / | -7% | /
CCN(CC)CCCC(C)NC(=O)c1cc(=O)c2ccccc2o1 (stereo unspecified) | -1% | -11%[46.1 µM] | -2% | / | -10% | / | 5% | 1%
Cc1ccc(CCNS(=O)(=O)c2cnc[nH]2)cc1 | -4% | 4% | -2% | -4% | 0% | 7.4% | 20% | -4%
CCC(=O)Nc1ccccc1-c1nc2ccccc2n(CC(=O)Nc2ccc(C)c(C)c2)c1=O | / | 4%[46.1 µM] | / | -4% | -5%[46.1 µM] | -2.7% | -7% | /
CCCN(CCC)c1nc(Cl)nc(NCc2ccco2)n1 | -2% | ? | 2% | -1% | -34% | -7.7% | ? | -3%
CNC(=S)N(CCc1c(C)[nH]c2ccc(C)cc12)Cc1cccnc1 | 8% | / | 13% | / | / | / | -26% | 5%
CC1Oc2cc3c(-c4c(O)cc(O)c5c(O)c6c(cc45)OC(C)C(C)C6=O)c(O)cc(O)c3c(O)c2C(=O)C1C (stereo unspecified) | -16% | / | 2% | / | / | / | ? | 18%

Nine entries from above, ordered by SMILES length, lowest first.
SMILES | RE007 growth inh | MARV entry inh | SARS PLP yeast | Cruzain inh noDet | Lassa entry inh | Cruzain Triton | 2A StopGo | NS1 inh
O=C(O)COc1ccccc1Cc1ccccc1 | 6% | 20% | -5% | -9% | -1% | 0.3% | -3% | 5%
CCC(C)n1cnc2c(=O)oc3ccccc3c21 (stereo unspecified) | -10% | 6% | 8% | -21% | 1% | 5.1% | / | 2%
CCCN(CCC)c1nc(Cl)nc(NCc2ccco2)n1 | -2% | ? | 2% | -1% | -34% | -7.7% | ? | -3%
Cc1ccc(CCNS(=O)(=O)c2cnc[nH]2)cc1 | -4% | 4% | -2% | -4% | 0% | 7.4% | 20% | -4%
COc1ccc(C(=O)Nc2ccc3ccccc3n2)c(OC)c1OC | -9% | / | -7% | / | / | / | -66% | 9%
CNC(=S)N(CCc1c(C)[nH]c2ccc(C)cc12)Cc1cccnc1 | 8% | / | 13% | / | / | / | -26% | 5%
CCN(C(=O)C1CSC2(C)CCC(=O)N12)c1nc2c(C)cccc2s1 (stereo unspecified) | -1% | -5% | 1% | / | 9% | / | -7% | /
O=C(CSc1nc(O)c(C2CCCCC2)c(=O)[nH]1)Nc1ccc(F)cc1 | 7% | 6%[46.1 µM] | 6% | / | 3% | / | -18% | 27%
CCC(=O)Nc1ccccc1-c1nc2ccccc2n(CC(=O)Nc2ccc(C)c(C)c2)c1=O | / | 4%[46.1 µM] | / | -4% | -5%[46.1 µM] | -2.7% | -7% | /

(cont.)
SMILES | RE007 growth inh | MARV entry inh | SARS PLP yeast | Cruzain inh noDet | Lassa entry inh | Cruzain Triton | 2A StopGo | NS1 inh
COc1ccc(NC(=O)N2CCN(C(=O)Nc3ccc(OC)cc3)CC2)cc1 | 10% | / | -1% | / | / | / | 2% | 3%
Cc1cc(C)c(S(=O)(=O)N2CCN(Cc3nc4ccc(C)cc4o3)CC2)c(C)c1 | / | / | / | 22% | -16%[46.1 µM] | -5.0% | -6% | /
CCOC(=O)C(C)NC(=O)CCc1nnc2ccc(N3CCC(C)CC3)nn12 (stereo unspecified) | 0% | / | 1% | / | / | / | -1% | 8%
CC(C)(C)NC(=O)CSc1nnc(Cc2ccccc2)n1CC1CCCO1 (stereo unspecified) | -1% | / | 0% | / | / | / | -5% | -2%
O=C(CSC(=S)N1CCOCC1)Nc1ccc(S(=O)(=O)Nc2ncccn2)cc1 | 10% | -2%[46.1 µM] | 4% | / | 0%[46.1 µM] | / | 1% | 3%
COc1ccccc1C(CNC(=O)C(CCSC)NC(=O)c1ccccc1Cl)N1CCCC1 (stereo unspecified) | -14% | 2.8µM* | / | / | 6% | / | -6% | /
O=C(O)CCNS(=O)(=O)c1ccc(Oc2ccccc2)cc1 | -4% | 0% | 0% | -6% | -4% | 5.4% | -6% | 3%
O=C(Cn1cc(S(=O)(=O)N2CCCC2)c(S(=O)(=O)N2CCCC2)c1)Nc1cccc(F)c1 | / | / | / | 8% | 24%[46.1 µM] | -3.1% | 12% | /
CCOC(=O)CCC(NC(=O)CCCCCCCC(=O)NC(CCC(=O)OCC)C(=O)OCC)C(=O)OCC (stereo unspecified) | 21% | -23% | 19% | 11% | 7% | 0.6% | -7% | 5%
CCOc1ccccc1N1CCN(Cc2ccc(Br)s2)CC1 | -13% | 4% | -11% | 19% | -27% | -4.1% | ? | -71%
CC(C)(C)c1ccc(C(=O)NCCCNC(=O)c2cccnc2)cc1 | -3% | ? | 1% | / | 14%[46.1 µM] | / | 20% | -1%
COc1cc(OC)c(NC(=O)c2c(C)oc3ncn(C)c(=O)c23)cc1Cl | / | 4%[46.1 µM] | / | -5% | 0%[46.1 µM] | 1.4% | -4% | /
CC1CCc2nc(NC(=O)c3cc(C(C)(C)C)nn3C)sc2C1 (stereo unspecified) | 1% | / | 1% | / | / | / | -11% | -21%
O=C(Cn1ncc2c3ccccc3n(Cc3cccc(Cl)c3)c2c1=O)N1CCCCCC1 | / | -21%[46.1 µM] | / | -1% | -12%[46.1 µM] | -9.6% | -22% | /
CC1CC(C)CN(CCCNC(=O)Cc2c(C(=O)O)[nH]c3ccccc23)C1 (stereo unspecified) | 13% | 1% | 7% | 4% | -1% | 5.4% | -6% | -13%
COc1ccc(C(=O)OCC(=O)N2CCc3ccccc3C2)cc1OC | 0% | ? | -1% | / | -8% | / | -8% | /
O=c1[nH]c2cc(F)ccc2c2ccc(F)cc12 | 4% | 17% | / | / | 1% | / | -12% | /
Cc1ccc2nc(NCc3ccccc3)c3nnnn3c2c1 | / | / | / | 6% | ? | -1.0% | -8% | /
CCCCNC(=O)NS(=O)(=O)c1ccc(NS(=O)(=O)c2ccccc2)cc1 | -5% | ? | -5% | -2% | -1% | -3.7% | -9% | 6%
CCOc1ccc(CN2C(=O)c3ccccc3C2=O)cc1C(=O)O | 10% | 11%[46.1 µM] | 2% | / | 15%[46.1 µM] | / | -11% | 1%
O=C(CCCCCCN1C(=O)c2ccccc2C1=O)NC1CCCCC1 | 2% | 1% | 3% | 9% | -25% | -5.2% | 0% | -42%
COc1cc(S(=O)(=O)N2CCOCC2)ccc1NC(=O)CSc1nnc(N)s1 | 15% | -14% | 0% | -12% | 12% | 2.3% | -3% | 6%
O=C(COC(=O)c1cccc(F)c1)NC1CC1 | -11% | ? | 8% | / | ? | / | 32%[activator] | /
O=C(CN1CCN(S(=O)(=O)c2ccc(F)cc2)CC1)NCC1(N2CCOCC2)CCCCC1 | 3% | -19% | 1% | / | 2% | / | -15% | /
COc1cc(-c2cc(OC)c3c(C)oc(C)c3c(=O)c2)ccc1OC(=O)c1ccccc1C | / | ? | / | 28% | -9%[46.1 µM] | -21% | ? | /
CCc1c(O)nc(SCC(=O)Nc2ccccc2C)[nH]c1=O | 0% | 2% | 1% | -7% | 0% | 1.4% | -1% | 3%
CN(Cc1ccccc1)S(=O)(=O)c1ccc(N2CCOCC2)nc1 | 3% | 3%[46.1 µM] | -1% | / | -17% | / | -19% | -6%
CC(C)(C)n1nnnc1C(c1cccc(C(F)(F)F)c1)N1CCOCC1 (stereo unspecified) | -1% | -6% | 5% | ? | -14% | 5.3% | / | -9%
Cc1ccc(S(=O)(=O)NCCC(=O)N2CCN(S(=O)(=O)c3cccc(F)c3)CC2)cc1C | 10% | ? | 1% | / | -11% | / | -21% | /
O=C(O)CCC(=O)N1N=C(c2ccco2)CC1c1ccco1 (stereo unspecified) | 6% | 7% | 7% | / | 16% | / | 5% | 18%
CCc1ccc(NC(=O)NCc2ccccn2)cc1 | -15% | / | 1% | / | / | / | 15% | ?
COc1ccc(C)cc1S(=O)(=O)N1CCC(C(=O)N2CCOCC2)CC1 | 5% | 4% | -10% | -7% | 18% | -0.3% | -23% | -5%
Cc1cc(CC(C)C)n(-c2nc3ccccc3c(=O)n2OCc2ccccc2)n1 | -23% | -3% | -16% | -4% | -3% | -2.6% | -3% | -46%
COc1ccc(OC)c(C2C(C(C)=O)=C(C)Nc3ncnn32)c1 (stereo unspecified) | -2% | ? | 1% | / | -3% | / | -4% | 5%
CC(C)CCNc1ncnc2c1cnn2Cc1ccccc1Cl | 4% | / | -1% | / | / | / | ? | -8%

From PubChem
